Bioassay records deposited in PubChem by several laboratories.
Vif A3G = inhibitors of Vif binding to APOBEC3G peptide, primary screen, biochemical, TR-FRET, GST-Vif 1-94, biotin-A3G peptide, dose response retest (AID 1117319); Virion infectivity factor (Human immunodeficiency virus type 1 group M subtype B (isolate …; TR-FRET GST-Vif / biotin-A3G peptide binding; higher % means a stronger effect; test concentration not given here; strong numbers were not always called active; inhibition, %; hits with a dose series show IC50 in µM; 260,000 compounds, 0.57% hits;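 active = above the screen mean plus three standard deviations and confirmed in dose response; inconclusive = results disagree or hit not tested in dose response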;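 also: Vif residues 1-94 fused to GST binding biotinylated APOBEC3G peptide 110-148; 0% = full assay without inhibitor and 100% = GST in place of GST-Vif; retest series ran down from 100 µM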
Beta cell apopt = inhibitors of cytokine-induced beta cell apoptosis, primary screen, luminescence; INS-1E cytokine-induced death, ATP luminescence, 48 h; percent of positive-control rescue, neutral wells zero; protection from apoptosis, % (no concentration beside the values); 300,000 compounds, 0.8% hits;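 active = all replicates at 75% or more, or half of them and the mean; inconclusive = half reach 75% but not the mean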;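 also: 0% = cytokine-treated negative control wells and 100% = positive control rescue; higher means more ATP so stronger rescue from cytokine killing; wells of about 40 µL received 100 nL stock; the first replicate is given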
RanGTP-Impb inh = inhibitors of RanGTP-importin-beta interaction, primary screen, biochemical, FRET, CFP-Ran, YFP-importin-beta, homogeneous. Ran GTPase (GTP-bound) - importin-beta complex. cell-free CFP-Ran/YFP-importin-beta FRET ratio. inhibition, % (test concentration not listed). 300,000 compounds, 1.1% hits;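 active = most replicates above 15%; inconclusive = exactly half above 15%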;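 also: 0% = DMSO wells and 100% = Ran loaded with GDP instead of GTP; wells of about 40 µL received 100 nL stock; the first replicate is given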
MLL AF4-AF9 inh = inhibitors of AF4 peptide binding to AF9, primary screen, biochemical, AlphaScreen, biotin-AF4 peptide, FLAG-AF9, single point; 350,000 compounds, 0.47% hits; Protein AF-9 (Homo sapiens), P42568; AID 651704, 2012; inhibition, % at 10 µM;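 active = every replicate reaching a set inhibition limit, whatever the replicate mean, cut at about 25% in these data; inconclusive = mean inhibition reaches that limit but some replicates miss it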;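 also: 0% = plate neutral control median and 100% = total signal loss; the record names both 10 and 1 µM as test concentration; the first replicate is given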
A1 inh = caspase 3/7 activation in MEF A1-2A-BIM cells, primary screen, A1 inhibitor project, cell-based, luminescence, HTS | caspase activation, % (test concentration not listed) | Caspase-Glo 3/7 luminescence, 3 h; percent of clofoctol response, vehicle zero | 330,000 compounds, 0.066% hits;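 active = over half of replicate activation scores above 10%, or exactly half above 10 with the replicate mean above 10; inconclusive = replicate mean below 10 yet half the replicates above 10; inactive = over half of replicates below 10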;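 also: wells of about 30 µL received 50 nL stock; many hits fall short of the cut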
Calb FLC = C. albicans growth inhibition with fluconazole, primary screen, CaCi-2 strain, Alamar Blue fluorescence | C. albicans CaCi-2 (fluconazole-resistant clinical isolate) + fluconazole, 48 h | 300,000 compounds, 0.57% hits | growth inhibition, % (concentration not given with the values);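 active = most replicates above 75%; inconclusive = exactly half above 75%; inactive = most below 75%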;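 also: all wells also contain fluconazole at 8 µg/ml as a sub-toxic cotreatment; 0% = median of DMSO wells and 100% = median of geldanamycin control wells; wells of about 8 µL received 7.5 nL stock; the first replicate is given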
T cruzi repl = inhibitors of intracellular T. cruzi growth, primary screen, luminescence, NIH3T3 host cells. T. cruzi beta-gal in NIH3T3, 90 h. AID 1885, 2009. 300,000 compounds, 1.4% hits. inhibition, % (test concentration not listed);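 active = mean inhibition across valid replicates above about 55%, limit read from the data; inconclusive = mean below that limit but half or more replicates reach it; inactive = mean below it, under half of replicates reach it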;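 also: signal also drops with host cell toxicity which is not excluded here; 0% = plate median of DMSO wells and 100% = zero luminescence signal; higher percent means less beta-gal luminescence so fewer parasites; stock transfer was 50 nL into about 50 µL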
LANA-H2B inh = blockers of LANA interaction with H2A/H2B – biochemical, FP readout, HTS, primary screen | inhibition, % (concentration not given with the values) | cell-free LANA-H2A/H2B peptide, fluorescence polarization | 320,000 compounds, 0.6% hits | AID 2629, 2010; in the data active = inhibition mostly above about 10%, no sharp cut-off; inactive = mostly below about 6.7%;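 also: stock transfer was 7.5 nL into about 10 µL; 0% = median of vehicle wells and 100% = median of positive control wells; one replicate is shown; the record names a cut of 25% in any replicate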
Target sequence (Q9QR71 whole entry, looked up): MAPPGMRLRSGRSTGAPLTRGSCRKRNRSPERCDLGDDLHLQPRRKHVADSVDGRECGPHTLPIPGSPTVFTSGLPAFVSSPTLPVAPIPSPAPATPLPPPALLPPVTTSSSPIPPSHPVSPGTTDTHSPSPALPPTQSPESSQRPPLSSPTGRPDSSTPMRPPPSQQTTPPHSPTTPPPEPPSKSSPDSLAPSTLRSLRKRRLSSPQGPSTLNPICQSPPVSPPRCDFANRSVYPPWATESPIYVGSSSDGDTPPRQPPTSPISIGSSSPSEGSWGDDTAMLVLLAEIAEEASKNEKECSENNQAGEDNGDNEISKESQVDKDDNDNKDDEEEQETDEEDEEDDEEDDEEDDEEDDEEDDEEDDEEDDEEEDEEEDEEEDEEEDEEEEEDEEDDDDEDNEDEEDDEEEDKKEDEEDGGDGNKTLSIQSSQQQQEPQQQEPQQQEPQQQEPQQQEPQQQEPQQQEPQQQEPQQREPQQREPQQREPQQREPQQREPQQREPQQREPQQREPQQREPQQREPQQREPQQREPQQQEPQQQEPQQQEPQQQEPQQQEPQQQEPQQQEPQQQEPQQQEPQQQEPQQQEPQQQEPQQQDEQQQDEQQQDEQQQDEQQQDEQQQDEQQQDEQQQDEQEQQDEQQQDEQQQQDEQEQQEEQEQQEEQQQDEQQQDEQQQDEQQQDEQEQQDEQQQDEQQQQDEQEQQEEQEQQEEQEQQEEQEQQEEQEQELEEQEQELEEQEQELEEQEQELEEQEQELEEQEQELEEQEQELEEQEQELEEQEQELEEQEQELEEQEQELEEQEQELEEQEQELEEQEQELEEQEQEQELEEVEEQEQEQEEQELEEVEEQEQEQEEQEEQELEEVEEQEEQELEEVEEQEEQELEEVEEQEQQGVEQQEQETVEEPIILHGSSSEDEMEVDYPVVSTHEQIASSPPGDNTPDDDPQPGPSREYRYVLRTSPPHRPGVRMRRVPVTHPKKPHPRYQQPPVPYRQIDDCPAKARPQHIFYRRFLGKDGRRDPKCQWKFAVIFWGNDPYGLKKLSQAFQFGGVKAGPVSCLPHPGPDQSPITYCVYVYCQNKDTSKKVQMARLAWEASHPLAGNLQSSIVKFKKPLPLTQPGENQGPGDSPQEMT
Active calls of the source: *; u = inconclusive; x = no result given; & = joins results of further samples.

SMILES	Vif A3G	Beta cell apopt	RanGTP-Impb inh	MLL AF4-AF9 inh	A1 inh	Calb FLC	T cruzi repl	LANA-H2B inh
O=C(CSCc1c(Cl)cccc1Cl)Nc1nccs1	-2%	x	6.2	x	0.6	-2	-2	0.5
C[C@H](CO)N1C[C@H](C)[C@@H](CN(C)S(=O)(=O)c2cccs2)Oc2ccc(NS(=O)(=O)c3ccc(F)cc3)cc2C1=O	x	3	x	-0.9&-1.8	-0.5	x	x	-3.6
CCCC(=O)Nc1ccc(-c2cnc(-c3ccc(NC(=O)CCC)cc3)nc2)cc1	17%	2	-5.0	-3.9	1.1	8	-5	1.7
Cc1ccc(S(=O)(=O)NC(=NC(Cc2ccccc2)C(=O)O)c2ccccc2)cc1 (stereo not drawn)	x	-2	-1.0	-8.4	0.2	-3	-8	-3.3
O=C(/C=C/c1ccccc1Cl)c1cccnc1	4%	-2	5.2	x	-0.6	4	-8	-0.5
CSCC(=O)NCC1(N(C)Cc2ccccc2)Cc2ccccc2C1	x	x	6.9	-0.7	0.8	1	-3	-3.6
CCOc1ccc(NC(=O)CCNS(=O)(=O)c2ccc3c(c2)oc(=O)n3C)cc1	0%	2	1.2	-2.4	-0.3	11	-6	3.2
CC(C)Cc1nnc(NC(=O)CSc2nc(=O)cc(N)n2-c2ccccc2)s1	u	-10	0.7	x	-0.1	5	5	-0.4
CCN(C(=O)CSc1nc2ccc(OC)cc2[nH]1)C1CCS(=O)(=O)C1 (stereo not drawn)	-1%	1	x	-6.7	1.0	5	4	2.4
COc1ccc(N2CC(C(=O)NCCC3=CCCCC3)CC2=O)cc1 (stereo not drawn)	2%	-3	1.3	x	0.7	54	-8	1.2
Cc1cc(=O)n2nc(N3CCCC3C(=O)NCCCN3CCCCC3)sc2n1 (stereo not drawn)	3%	1	0.4	x	-0.3	4	-8	-8.7
CCN1CCN(C(=O)c2cc3cc4cc(OC)ccc4nc3s2)CC1	32%	-1	-1.2	x	-0.9	0	13	1.3
Cc1cc(C)c(C(=O)N(C)C2CCCN(Cc3ccccc3F)C2)o1 (stereo not drawn)	-5%	-2	1.6	2.7	0.5	0	14	-2.7
O=[N+]([O-])c1ccc(S(=O)(=O)N2CCN=C2SCc2ccc(F)cc2)cc1	x	-1	4.8	0.8	-0.4	2	u	-1.5
Cc1ccc(NS(=O)(=O)c2ccc(C(=O)N3CCN(c4ccccn4)CC3)cc2)cc1	21%	18	-3.1	x	-0.7	9	-31	-3.3

One compound at a time, as listed above.
O=C(CSCc1c(Cl)cccc1Cl)Nc1nccs1 in the list: Vif A3G: -2%; Beta cell apopt: x; RanGTP-Impb inh: 6.2; MLL AF4-AF9 inh: x; A1 inh: 0.6; Calb FLC: -2; T cruzi repl: -2; LANA-H2B inh: 0.5
CCN1CCN(C(=O)c2cc3cc4cc(OC)ccc4nc3s2)CC1 in the list: Vif A3G: 32%; Beta cell apopt: -1; RanGTP-Impb inh: -1.2; MLL AF4-AF9 inh: x; A1 inh: -0.9; Calb FLC: 0; T cruzi repl: 13; LANA-H2B inh: 1.3

(listing goes on)
SMILES	Vif A3G	Beta cell apopt	RanGTP-Impb inh	MLL AF4-AF9 inh	A1 inh	Calb FLC	T cruzi repl	LANA-H2B inh
COc1ccc(CCNC(=O)c2ccc(CN3CCOCC3)cc2)cc1	u	-6	u	x	-0.6	-4	-12	2.4
COc1c2ccoc2c(OC[C@@H](OC(C)=O)C(C)(C)O)c2oc(=O)ccc12	x	-8	x	-27	0.0	x	x	3.8
COc1ccc(OC)c(/C=N/NC(=O)c2cc3c(OC)cc(OC)cc3[nH]2)c1	x	-2	-0.1	-1.1	1.2	-9	18	-0.4
O=C(NN=C1CCCC1)c1ccccc1OCCOc1ccccc1	x	2	-1.9	-3.3	0.7	-7	-20	-3.5
CC1(C)NC(C)(C)C(O)(C(N)=O)C1=O (stereo not drawn)	-6%	-4	3.4	x	0.2	-28	-11	5.1
Cc1ccccc1NS(=O)(=O)c1nnc(NC(=O)C(C)C)s1	-1%	-4	0.9	-0.8	0.3	4	-11	2.7
Cc1ccc2nc(N3CCN(c4cccc(C)c4C)CC3)c3nnnn3c2c1	-3%	x	5.6	x	-0.6	-4	-7	5.3
COC(=O)C1=C(C)N(c2ccc(C)cc2)/C(=C/c2ccc(O)cc2)C1=O	-2%	8	0.0	-0.2	0.2	-6	1	8.0
CCc1ccc(OCC(=O)Nc2cccc3nsnc23)cc1	-5%	-6	1.7	3.6	-0.4	49	-15	-6.0
CCN(CC)C(=O)C1CCN(S(=O)(=O)c2c(C)noc2/C=C/c2cccc(C)c2)CC1	-7%	6	3.2	8.6	0.4	11	5	-3.9
Clc1ccc(-n2nnnc2Sc2ncnc3sccc23)cc1	x	-16	5.2	x	0.5	26	-13	0.4
Cn1c(=O)c2c(-c3ccc(OC(F)F)cc3)cc(-c3ccccc3)nc2n(C)c1=O	3%	-3	-3.0	x	0.3	-8	13	-2.1
COc1ccc(-c2c(C)nc3c(-c4ccsc4)cnn3c2N)cc1	-13%	1	-8.1	-2.8	-1.2	-6	29	1.6
C=CCSc1nc(N)c(NC(=O)c2ccco2)c(=O)[nH]1	x	-5	x	3.0	0.2	x	x	11
Cc1cc(CSc2ccccc2)ccc1NC(=O)COc1ccccc1C	11%	2	-3.8	-2.0	0.2	5	-17	-10

Four structures out of the list, sorted by SMILES length, ascending.
SMILES	Vif A3G	Beta cell apopt	RanGTP-Impb inh	MLL AF4-AF9 inh	A1 inh	Calb FLC	T cruzi repl	LANA-H2B inh
Cc1cc(C)c(C(=O)N(C)C2CCCN(Cc3ccccc3F)C2)o1 (stereo not drawn)	-5%	-2	1.6	2.7	0.5	0	14	-2.7
COc1ccc(OC)c(/C=N/NC(=O)c2cc3c(OC)cc(OC)cc3[nH]2)c1	x	-2	-0.1	-1.1	1.2	-9	18	-0.4
COc1c2ccoc2c(OC[C@@H](OC(C)=O)C(C)(C)O)c2oc(=O)ccc12	x	-8	x	-27	0.0	x	x	3.8
Cc1ccc(NS(=O)(=O)c2ccc(C(=O)N3CCN(c4ccccn4)CC3)cc2)cc1	21%	18	-3.1	x	-0.7	9	-31	-3.3

Next section
SMILES	Vif A3G	Beta cell apopt	RanGTP-Impb inh	MLL AF4-AF9 inh	A1 inh	Calb FLC	T cruzi repl	LANA-H2B inh
CCCNC(=O)NC(=O)CSc1nc2ccccc2n1CC(C)C	-1%	-1	3.5	9.2	-0.5	3	14	2.2
CC1CC(=O)Nc2ccccc2N1C(=O)COc1ccc2ccccc2c1 (stereo not drawn)	3%	-2	x	-1.7	0.3	x	x	-2.3
O=C(NCc1ccc2c(c1)OCO2)C(=O)NCC(c1ccco1)N1CCN(c2ccccc2)CC1 (stereo not drawn)	-11%	-1	-2.2	-5.1	-0.5	-17	32	-4.6
CCCCn1c(Nc2ccccc2)nc2ccccc21	-1%	-3	-4.8	x	0.1	2	-5	-5.9
COC(=O)c1[nH]c2cc(OC)c(OC)cc2c1/C=N/Nc1ccccc1	x	5	1.4	-5.0	-0.1	2	44	1.3
CCN(CC)CCN(C(=O)c1ccc2c(c1)OCCO2)c1nc2ccc(C)cc2s1	x	-9	3.9	u	0.7	3	69*	2.8
COCC1CCN(Cc2nc(-c3ccc(OC)cc3)no2)CC1	4%	1	-0.5	-16	-0.4	-9	2	3.4
COc1cc(-c2[nH]ncc2CN2CCc3sccc3C2)cc(OC)c1OC	1%	2	5.7	5.8	1.2	1	0	-4.2
O=C(Nc1ccccc1)C1=C[C@@H](C2CCCCC2)C[C@@H](OCCCCO)O1	23%	0	-2.4	6.2	-1.2	8	2	1.6
CC(=O)Oc1ccc(-c2csnn2)cc1	22%	2	-2.3	x	1.1	-9	0	10
O=C(N/N=C/c1ccc([N+](=O)[O-])o1)c1ccccc1-n1cccc1	u	19	0.2	3.7	0.2	-8	67*	-1.6
CCOc1ccc(S(=O)(=O)Nc2cccc(-c3ccc(N4CCCCCC4)nn3)c2)cc1	1%	8	0.6	-3.7	0.5	0	12	2.6
CCNC(=S)N/N=C/c1ccc(C(=O)O)cc1	11%	-1	2.3	-1.7	-6.5	3	0	-1.4
Cc1ncoc1C(=O)Nc1nccs1	27%	-9	6.0	x	-1.1	-24	-4	-1.4
CC(NC(=O)CN1CCN(S(=O)(=O)c2ccc(Br)cc2)CC1)c1ccccc1 (stereo not drawn)	-3%	-4	4.8	-17	-1.3	7	-3	2.3
COc1cc(/C=C/C(=O)OCC(=O)NC(C)c2ccccc2)cc(OC)c1OC (stereo not drawn)	-2%	-6	x	-1.7	0.9	x	x	-0.1
Cc1cccc(C(=O)NCC(=O)OCCOc2ccccc2Cl)c1	-4%	-7	1.1	-1.8	0.4	-4	-14	-3.9
CCC(C)n1c(-c2cccc(S(=O)(=O)N(CC)CC)c2)n[nH]c1=S (stereo not drawn)	-4%	4	-2.1	-9.3	-0.1	-1	-2	2.8
O=C(O)CCCn1cc(NC(=O)c2sc3ccccc3c2Cl)cn1	x	x	3.4	2.8	x	-7	-18	x

Some entries already given, showing only Calb FLC.
mol	Calb FLC
CCN(CC)C(=O)C1CCN(S(=O)(=O)c2c(C)noc2/C=C/c2cccc(C)c2)CC1	11
Clc1ccc(-n2nnnc2Sc2ncnc3sccc23)cc1	26
Cn1c(=O)c2c(-c3ccc(OC(F)F)cc3)cc(-c3ccccc3)nc2n(C)c1=O	-8
